gsp ag: qHTS for Agonist of gsp, the Etiologic Mutation Responsible for Fibrous Dysplasia/McCune-Albright Syndrome: qHTS. Potency, µM (top dose mostly 76.9 µM), for the others: at the top dose activation (cAMP increase), most hits filed as activators. 340,000 tested, 0.13% active. gsp mutant cells, cAMP HTRF, 30 min; control for the full effect not named in the record; active = well fitted activation curve with a large enough effect; inconclusive = small, poorly fitted or top-dose-only effect, or another doubt; inactive = no such curve, though single readings can be large or run the other way; cell line not stated here;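 also: phosphodiesterase inhibitor Ro 20-1724 added with compounds to block cAMP breakdown; potency is read from the fitted curve at half-maximal effect; nearly all actives have a fitted effect of over 60% in size; about a fifth of the inactives were tested at one dose only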
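Cells stably selected in G418 were plated at 2000/well, grown 16-24 hr, then given compounds in DMSO with the PDE inhibitor […] (300 uM solution added) for 30 min at 37C; cAMP was read by HTRF.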
D2 potentiator: Beta-Arrestin HTS for Positive Allosteric Modulators of the Human D2 Dopamine Receptor: Potentiators. D(2) dopamine receptor (Homo sapiens), P14416. DiscoveRx D2 beta-arrestin cells, luminescence, 90 min; 100% = 57 uM dopamine signal. potentiation, % (no concentration beside the values). 360,000 tested, 0.23% active. AID 624464, 2012; active = potentiation of 50% or more; inconclusive = 30% to 50%; inactive = 30% or less;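 also: compound concentration not given in the record; tested on top of an EC20 dose of dopamine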
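PathHunter D2 cells, attached overnight at 37 deg C, received compound in DMSO plus dopamine at EC20 (50 nM final) for 90 min at 37 deg C. Beta-arrestin recruitment was read as luminescence after 1 h with detection reagent at ambient temperature.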
ClpP mod: qHTS Assay for Activators of ClpP | 340,000 tested, 1.9% active | Potency, µM (highest dose often 57.5 µM), for inactives: at the highest dose activity change, negative = active | AID 651965, 2013 | purified B. subtilis ClpP, FRET peptide cleavage, 20 min; active = well fitted falling curve with a large enough effect; inconclusive = small, poorly fitted or top-dose-only effect; inactive = no such curve, though single readings can be large or run the other way; also: potency is read from the fitted curve at half-maximal effect; the source files actives as falling curves though it sought activators and does not explain the sign; nearly all actives have a fitted effect of over 65% in size; many hits overshoot -100%
Target sequence (P80244 whole entry, looked up): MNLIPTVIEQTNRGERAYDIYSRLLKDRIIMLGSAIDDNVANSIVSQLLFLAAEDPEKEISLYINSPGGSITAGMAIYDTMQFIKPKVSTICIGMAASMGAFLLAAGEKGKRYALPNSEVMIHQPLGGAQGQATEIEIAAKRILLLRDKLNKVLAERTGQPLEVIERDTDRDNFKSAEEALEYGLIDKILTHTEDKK
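FRET quenching reversal measured ClpP activation: 10 microg/mL B. subtilis ClpP at pH 8 with the FRET-FV decapeptide, read at 430 nm after 320 nm excitation. The 20-min minus 0-min signal was scaled between DMSO/no-enzyme wells and ADEP (5.8 microM final).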
Menin-MLL FL inh: qHTS Assay for Inhibitors Targeting the Menin-MLL Interaction in MLL Related Leukemias: Competition With Fluorescein Labeled MLL-derived Peptide; Fluorescence polarization, fluorescein-MLL peptide displacement from menin; FP activity change, % at 61.4 µM; 290,000 tested, under 10 active; AID 1766, 2009; inconclusive = falling polarisation curve, or a change in total fluorescence; inactive = total fluorescence flat and polarisation flat or rising; no compound was filed as active; the % refers to the polarisation; negative = inhibition;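 also: % of control where 0% means no effect; inhibitors lower the polarisation; unlabelled MLL peptide was the positive control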
Sfp PPTase inh: qHTS Assay for Inhibitors of Bacillus subtilis Sfp phosphopantetheinyl transferase (PPTase); 4'-phosphopantetheinyl transferase ffp (Bacillus subtilis), Q9F4F7; Biochemical Sfp PPTase activity, qHTS; Potency, µM, without a hit: max response, negative = inhibition, most hits filed as inhibitors; 310,000 tested, 3.5% active; active = well fitted inhibition curve with a large enough effect; inconclusive = small, poorly fitted or top-dose-only effect, or another doubt; inactive = no such curve, though single readings can be large or run the other way;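 also: the enzyme is Sfp with the accession as filed and its product quenches rhodamine fluorescence; potency is read from the fitted curve at half-maximal effect; 0% = enzyme reaction without inhibitor and -100% = no enzyme wells; top concentration of the series not given in the record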
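Buffer: 50 mM Hepes-Na pH 7.6, 10 mM MgCl2, 0.01% Nonidet P-40, 0.01% BSA. Enzyme 15 nM, pre-exposed to compound 15 min; substrates then added and fluorescence change tracked over 30 min.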
TRPV1 potentiator: HTS Assay for Compounds that Act as Potentiators of the Vanilloid Receptor 1. Transient receptor potential cation channel subfamily V member 1 (Homo sapiens), Q8NER1. TRPV1-expressing cells, Fluo-8 calcium influx, capsaicin EC20 potentiation; host cell line not named in the record; control for the full effect not named in the record. potentiation, % at 8.33 µM. 320,000 tested, 0.02% active. AID 540277, 2011; active means potentiation above 80%; inconclusive means 30% to 80%; inactive means below 30%; also: 0% is about no effect
Target sequence (Q8NER1 whole entry, looked up): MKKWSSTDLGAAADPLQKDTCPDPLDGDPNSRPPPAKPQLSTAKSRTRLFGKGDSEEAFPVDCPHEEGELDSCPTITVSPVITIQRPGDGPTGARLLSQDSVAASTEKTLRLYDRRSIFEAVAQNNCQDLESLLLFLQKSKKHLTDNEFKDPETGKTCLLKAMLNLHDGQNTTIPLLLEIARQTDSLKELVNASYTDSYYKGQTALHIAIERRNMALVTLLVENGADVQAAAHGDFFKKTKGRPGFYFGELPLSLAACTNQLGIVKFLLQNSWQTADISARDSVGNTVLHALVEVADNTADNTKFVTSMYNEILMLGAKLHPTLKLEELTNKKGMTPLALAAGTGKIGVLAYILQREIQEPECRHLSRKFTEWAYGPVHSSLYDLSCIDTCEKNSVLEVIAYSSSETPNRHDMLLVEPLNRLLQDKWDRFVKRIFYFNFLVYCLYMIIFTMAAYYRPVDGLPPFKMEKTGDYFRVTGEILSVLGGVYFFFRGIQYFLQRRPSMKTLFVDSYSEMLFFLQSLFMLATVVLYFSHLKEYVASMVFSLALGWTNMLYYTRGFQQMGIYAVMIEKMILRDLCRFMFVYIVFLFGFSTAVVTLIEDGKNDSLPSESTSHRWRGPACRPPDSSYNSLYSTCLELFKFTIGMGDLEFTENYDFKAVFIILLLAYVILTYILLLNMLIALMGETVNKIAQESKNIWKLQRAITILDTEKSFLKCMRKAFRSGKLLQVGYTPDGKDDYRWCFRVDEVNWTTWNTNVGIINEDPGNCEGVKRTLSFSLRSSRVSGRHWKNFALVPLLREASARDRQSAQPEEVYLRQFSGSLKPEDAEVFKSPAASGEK
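Fluo-8 calcium influx in TRPV1-expressing cells, kinetic read (ex 480/em 520 nm). Compound added and read 3 min for agonist activity, followed by capsaicin at EC20 final and 2 min further read for enhancement.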
gsp antag: qHTS for Antagonists of gsp, the Etiologic Mutation Responsible for Fibrous Dysplasia/McCune-Albright Syndrome: qHTS. gsp-mutant cells, cAMP HTRF, 30 min; control for the full effect not named in the record. Potency, µM (series often up to 76.9 µM), inactives show at the top dose activity change, negative = inhibition, usual class: inhibitors. 340,000 tested, 0.4% active. AID 624288, 2012; active = falling curve of any shape with a large fitted effect; inconclusive = falling curve, mostly with a smaller effect; inactive = flat or rising curve; cell line not stated here;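 also: intracellular cAMP measured with PDE inhibitor Ro 20-1724 present during compound exposure; potency is read from the fitted curve at half-maximal effect; % is scaled to controls: 0 for no effect and ±100 for the full control effect; nearly all actives have a fitted effect of over 65% in size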
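HTRF cAMP measurement after 30 min RT detection following 30 min, 37C compound treatment alongside […] (added as 300 uM solution) in G418-selected cells seeded at 2000/well and grown 16–24 h.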
* = called active by the depositor; ? = inconclusive; · = no result given; & = joins results of further samples; [ ] = remark or other dose. Rows are unselected; about 5.1% have a hit in one of these screens.

SMILES	gsp ag	D2 potentiator	ClpP mod	Menin-MLL FL inh	Sfp PPTase inh	TRPV1 potentiator	gsp antag
O=C(CC1C(=O)NCCN1CC1CCCCC1)NCc1ccc(F)cc1F (stereo not given)	0%[15.4 µM]	-10	·	0.6	5%	-15	3%
CC(=O)Nc1nnc(CSCc2ccc(F)cc2)s1	0%	1	1.0%	?	7%	-8	-1%
CCCCCCn1c(O)c(/C=C2\C=NN=C2c2ccccc2)sc1=S	-12%	20	-1.6%	-0.6	18%	14	0%
Cc1ccc(CCNC(=O)C2CCCN(S(=O)(=O)c3cnc[nH]3)C2)cc1 (stereo not given)	-10%	-4	-1.6%	3.7	39%[activator]	12	4%
O=C(NNC(=O)c1ccc[nH]1)c1cccc(C(F)(F)F)c1	23%	-4	-0.2%	·	8%	7	12%
C=C(C)C(=O)O[C@H]1C/C(C)=C\C(=O)/C=C(\C)[C@H](O)[C@@H]2OC(=O)C(=C)[C@@H]21	·	-55	-5.5%	-2.1	?	-28	6%
COc1ccc2c3c(c(=O)oc2c1OCC(=O)C(C)(C)C)CCCC3	?	-6	?	1.4	18%	5	-1%
Cn1c(SCc2ccccc2Cl)nc(C(F)(F)F)cc1=O	?	15	-0.4%	-3.7	0%	4	8%
CCCc1[nH]c(=O)c(C#N)c2c1CCCC2	-44%	-6	?	7.5	14%	1	19%
CN1CCN(C(=O)C2CCN(S(=O)(=O)c3cnc[nH]3)CC2)CC1	-14%	-15	0.5%	-3.6	14%	1	2%
C/C(=C\C(=O)Nc1cscc1C)C(=O)O	17%[15.4 µM]	-8	·	-0.3	-3%	-1	-1%
CCN1CCN(c2ccc(S(=O)(=O)N3CCCCC3)cc2NC(=O)/C=C/c2cccc(OC)c2OC)CC1	2%[15.4 µM]	-16	-4.9%	1.9	-10%	6	-9%

Gathered by group: those above with two or more sulfur atoms.
SMILES	gsp ag	D2 potentiator	ClpP mod	Menin-MLL FL inh	Sfp PPTase inh	TRPV1 potentiator	gsp antag
CC(=O)Nc1nnc(CSCc2ccc(F)cc2)s1	0%	1	1.0%	?	7%	-8	-1%
CCCCCCn1c(O)c(/C=C2\C=NN=C2c2ccccc2)sc1=S	-12%	20	-1.6%	-0.6	18%	14	0%

Later entries
SMILES	gsp ag	D2 potentiator	ClpP mod	Menin-MLL FL inh	Sfp PPTase inh	TRPV1 potentiator	gsp antag
C=CCN(CC=C)C(=O)C1c2ccccc2Oc2ccccc21	12%	-12	-0.4%	·	·	·	·
O=S(=O)(c1ccc(F)cc1)N1CCN(Cc2nnc(-c3ccccc3)o2)CC1	-3%	-2	1.3%	·	·	0	-2%
Cc1nccn1CCC(=O)Nc1ccc(Cl)cc1	3%	-4	·	3.6	-1%	-2	4%
O=C(N/C(=C\c1ccco1)C(=O)N1CCCC1CO)c1ccccc1 (stereo not given)	25%	-4	·	?	-11%	-1	4%
O=C1c2ccccc2C(=O)N1c1n[nH]c(CCc2ccccc2)n1	-9%	-6	-15%	-0.6	19%	7	3%
Cc1cccc2c1CC(C)(C)N=C2C1=C(O)CC(C)(C)CC1=O	1%	-1	?	-0.8	7%	-5	-14%
Cc1nc2sc3c(c2c(=N)n1N)CCCC3	-1%	-5	·	-2.9	-3%	-12	3%
CCc1ccccc1NC(=S)N1CCC(NC(=O)c2ccc(OC)cc2)CC1	-15%	2	·	0.0	26%	-6	1%
COc1ccc(C(=O)NCc2nnc(SCC(=O)N3CCOCC3)o2)cc1	?	0	-1.1%	3.4	2%	-18	6%
CN(C)c1ccc(NC(=O)CSc2nnc(-c3cnccn3)n2C)cc1	14%	-10	-0.8%	0.8	2%	-12	-18%
O=Cc1cccc(Oc2ccc([N+](=O)[O-])cc2[N+](=O)[O-])c1	3%	-3	1.6%	0.3	18%	1	1%
Cc1ccc2c(c1)C(c1ccccc1)N(C(=O)c1ccccc1)CC(=O)N2 (stereo not given)	0%	-3	·	-7.7	12%	-3	-5%
CC(=N\NC(=O)c1cc(Br)ccc1O)/C(=N/O)C(=O)Nc1ccccc1	18%	5	1.0%	·	17%	5	?
O=C(CNC(=O)c1ccccc1F)NCc1cccnc1	-1%[15.4 µM]	-5	·	6.9	12%	4	-2%
C[n+]1cccc(C2C(C#N)=C(N)Oc3c2ccc2ccccc32)c1 (stereo not given)	8%[15.4 µM]	-5	·	5.3	-14%	-5	11%
O=C1N=C(N2CCCC2)S/C1=C\C=C\c1ccccc1	-23%	-1	0.2%	7.1	-10%	-16	-12%
COc1ccc(Br)cc1CN(C)CC(=O)Nc1c(Cl)cccc1Cl	-6%	-24	-2.0%	-4.2	?	-33	?
Nc1nc(CSC(=S)N2CCN(c3ccccc3)CC2)nc(Nc2ccc(F)cc2)n1	0%[15.4 µM]	-4	1.1%	·	11%	-1	5%
CC(=O)Oc1ccc(-c2cccc(C(=O)N3CCCCC3)c2)cc1	-23%	-5	·	-1.0	6%	6	-2%
O=C(CCc1ccccn1)NC1CCCc2c1cnn2-c1ccc(F)cc1F (stereo not given)	2%	-14	-2.6%	-0.3	-8%	1	-4%
Cc1ccc(NC(=O)COC(=O)c2ccc3c(c2)OCCO3)cc1	-25%	-1	-2.6%	·	·	-8	7%
O=C(Nc1cccc2ccccc12)NC1Cc2ccccc2C1	-12%[15.4 µM]	0	·	1.9	-23%	29	-5%
COC(=O)c1cccc(C(=O)N2CCC(CO)(CCc3ccccc3)CC2)c1	2%	-2	-0.4%	3.7	10%	6	-6%
CC(C)Cn1cc(Cl)c(=O)n(CC(C)C)c1=O	-32%[inhibitor]	-18	-3.2%	1.7	9%	-5	0%
CC1(C)C=C(c2ccc(O)cc2)CC(C)(C)N1	-15%	-1	0.1%	5.3	22%	-10	-5%
CS(=O)(=O)c1nsc2nc(=O)c(/C=C3\C=Nc4ccccc43)c(N)n12	23%	-5	-1.5%	2.9	7%	?	-9%
Cn1c(SCc2ccc3c(c2)OCO3)nnc1-c1ccccc1	16%	-8	?	-4.8	10%	16	-7%
Cn1c(Cn2nnc(-c3ccccc3)n2)nnc1SCc1ccccc1Cl	1%	-9	-0.1%	6.8	5%	-4	5%
S=C(NCCCN1CCOCC1)Nc1ccc(Nc2ccccc2)cc1	6%[15.4 µM]	-16	·	-0.2	-25%	2	-4%
C(=N/n1c2ccccc2c2ccccc21)/c1ccco1	22%	25	-1.0%	4.0	-4%	3	-7%
Cc1ccccc1-c1nc(CS(=O)CC(=O)NCCc2ccc(Cl)cc2)c(C)o1 (stereo not given)	-30%[inhibitor]	-13	-2.3%&-3.9%	·	-7%	17	-7%
O=C(NCCN1C(=O)S/C(=C/c2ccccc2)C1=O)C1CCCN1C(=O)c1cccs1 (stereo not given)	5%	-11	-0.5%	1.0	13%	-1	5%
O=C(CSc1ccccn1)Nc1cccc([N+](=O)[O-])c1	1%[15.4 µM]	2	·	-3.6	-26%	-11	-19%
CC(=O)c1c(C)[nH]c(C(=O)Nc2cccc(C#N)c2)c1C	-38%[15.4 µM]	-6	·	-0.7	14%	-5	-7%
CCCC(=O)Nc1cc(C)c(NC(=O)c2cccs2)cn1	-9%[15.4 µM]	-13	·	0.8	3%	6	-6%
CN(C)CCCNC(=O)C[C@H]1C[C@H](C(=O)N2CCOCC2)[C@@]2(CCC3CCCC3)c3[nH]c4cc(-c5ccco5)ccc4c3CCN2C1=O	·	4	3.9%	·	·	·	13%

Ordered by value in Sfp PPTase inh (falling): five of the compounds above.
molecule | Sfp PPTase inh
Cc1ccc2c(c1)C(c1ccccc1)N(C(=O)c1ccccc1)CC(=O)N2 (stereo not given) | 12%
Cn1c(Cn2nnc(-c3ccccc3)n2)nnc1SCc1ccccc1Cl | 5%
CN(C)c1ccc(NC(=O)CSc2nnc(-c3cnccn3)n2C)cc1 | 2%
O=C(CCc1ccccn1)NC1CCCc2c1cnn2-c1ccc(F)cc1F (stereo not given) | -8%
S=C(NCCCN1CCOCC1)Nc1ccc(Nc2ccccc2)cc1 | -25%

(list continues)
SMILES	gsp ag	D2 potentiator	ClpP mod	Menin-MLL FL inh	Sfp PPTase inh	TRPV1 potentiator	gsp antag
Cn1nc(C(F)(F)F)c(/C=N/OC(=O)c2ccccc2)c1SCc1ccc(Cl)cc1	3%	-3	2.7%	0.4	8%	0	-6%
Cc1nn(Cc2c(Cl)cccc2Cl)c(C)c1NC(=O)CCCn1nc([N+](=O)[O-])c(Cl)c1C	7%	-5	-3.3%	-0.8	-19%	-5	-3%
O=Nc1onc(-c2ccc([N+](=O)[O-])cc2)c1NO	1%[15.4 µM]	20	0.0%	2.8	14%	2	-9%
CN(C)CCCN(C(=O)c1ccc(S(=O)(=O)N(C)C2CCCCC2)cc1)c1nc2ccc(Br)cc2s1	28%	-13	-8.0%	·	40µM*	-2	8%
CN(CC(=O)Nc1c(Cl)cccc1Cl)C(=O)CNC(=O)C1CCCCC1	-1%[15.4 µM]	1	-2.1%	·	10%	5	6%
CCN(Cc1ccncc1)Cc1nc(Cc2ccccc2Cl)no1	11%	-14	-1.9%	-7.3	20%	-6	-5%
O=C1CSC(c2cccnc2)N1Cc1ccc(Cl)cc1 (stereo not given)	-7%[15.4 µM]	-10	·	0.9	4%	-3	-2%
O=C(Nc1ccc(S(=O)(=O)N2CCCCC2)cc1)c1ccc(=O)[nH]c1	47%	-1	-0.5%	·	·	-7	14%
CCC(=O)c1ccc(OCC(=O)Nc2cc(S(=O)(=O)N3CCCCC3)ccc2N2CCN(CC)CC2)cc1	-24%[15.4 µM]	-18	0.2%	·	·	-4	-12%
O=C1CCCc2nc(N3CCN(Cc4ccccc4)CC3)ncc21	0%	-1	-1.7%	-0.4	3%	-12	?

Bioassay records: PubChem BioAssay, National Center for Advancing Translational Sciences (NCATS)
